Source: PubChem (National Center for Advancing Translational Sciences (NCATS))
hNpr1 antagonist: blocks ANP-stimulated signaling of human Npr1 receptor; hit rate 1.6% among 76,000; Potency, µM (highest dose often 46.3 µM), inactives show at the top dose activity change, negative = inhibition, usual class: inhibitors; AID 1347048; P16066; HEK293 hNpr1 GloSensor cGMP, ANP-stimulated luminescence; active = well fitted inhibition curve with a large enough effect; inconclusive = small, poorly fitted or top-dose-only effect; inactive = no such curve, though single readings can be large or run the other way;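 note: nearly all actives have a fitted effect of over 60% in size; nearly all hits also lower the signal before the agonist is added; a reference antagonist and vehicle were the controls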
Target sequence (P16066 whole entry, looked up): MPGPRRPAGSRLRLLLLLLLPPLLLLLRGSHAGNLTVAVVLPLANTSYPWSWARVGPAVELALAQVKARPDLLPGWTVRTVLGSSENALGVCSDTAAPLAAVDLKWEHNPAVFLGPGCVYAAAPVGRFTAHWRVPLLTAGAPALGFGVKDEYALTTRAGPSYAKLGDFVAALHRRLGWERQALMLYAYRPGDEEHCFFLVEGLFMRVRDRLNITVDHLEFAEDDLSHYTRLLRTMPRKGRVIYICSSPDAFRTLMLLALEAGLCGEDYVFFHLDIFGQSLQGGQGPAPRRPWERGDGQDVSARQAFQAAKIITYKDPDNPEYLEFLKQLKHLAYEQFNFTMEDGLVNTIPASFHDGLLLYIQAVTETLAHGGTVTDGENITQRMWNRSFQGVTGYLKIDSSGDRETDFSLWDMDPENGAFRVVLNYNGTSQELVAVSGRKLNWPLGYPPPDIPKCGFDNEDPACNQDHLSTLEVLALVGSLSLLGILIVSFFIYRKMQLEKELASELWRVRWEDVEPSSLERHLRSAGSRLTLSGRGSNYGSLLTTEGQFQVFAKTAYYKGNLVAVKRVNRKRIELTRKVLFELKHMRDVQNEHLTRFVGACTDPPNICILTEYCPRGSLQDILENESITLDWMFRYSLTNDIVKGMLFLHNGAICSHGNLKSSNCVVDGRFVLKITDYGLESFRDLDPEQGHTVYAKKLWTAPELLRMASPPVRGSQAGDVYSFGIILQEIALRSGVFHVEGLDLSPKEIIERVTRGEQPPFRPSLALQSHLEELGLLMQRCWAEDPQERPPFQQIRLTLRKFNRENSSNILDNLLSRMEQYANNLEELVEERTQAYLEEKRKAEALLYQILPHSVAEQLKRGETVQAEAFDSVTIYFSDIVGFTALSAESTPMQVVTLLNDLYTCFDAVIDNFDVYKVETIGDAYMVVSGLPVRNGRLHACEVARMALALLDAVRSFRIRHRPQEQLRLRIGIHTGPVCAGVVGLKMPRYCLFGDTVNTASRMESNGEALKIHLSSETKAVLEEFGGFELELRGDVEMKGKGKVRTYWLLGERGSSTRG
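Compound pre-incubated 30 min at room temperature on GloSensor-loaded HEK293 cells stably carrying hNpr1 and the pGS-40F cGMP biosensor. Stimulation uses hNppA at 0.1 nM final; luminescence is taken at baseline and 20 min post-agonist.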
Numbers without * were called inactive; ? = inconclusive; [ ] = remark or other dose. % is set by controls: 0 for no effect and ±100 for the full control effect; potency is the fitted concentration of half-maximal effect. Only part of the results is shown, so the mix of outcomes need not match the whole.

SMILES	hNpr1 antagonist
CCCc1nnc(C[C@@H]2C[C@@H](C(C)C)[C@H](CN3CCN(C(C)=O)CC3)C=C2C)o1	-6%[70.6 µM]
O=C1CC2(CCN(Cc3ccc(C(F)(F)F)cc3F)C2)C(=O)N1 (stereo not drawn)	4%
Cc1ccc(C(=O)N2CCC3(CC2)NC(=O)N(c2ccccc2)N3)cc1F	-7%
C[C@@H]1CN(C(=O)c2ccsc2)C[C@H]1c1nc(-c2ccncc2)no1	-1%
Cc1noc(C)c1CN1CCCC(c2nccn2Cc2ccccc2)C1 (stereo not drawn)	2%
CC1=C[C@@H](CNC(=O)NC(C)C)[C@H](C(C)C)C[C@H]1CC(=O)NCc1ccccn1	4%[70.6 µM]
Cc1ccc(CN2C(=O)NC3(CCN(C(=O)c4ccccn4)CC3)C2=O)cc1	3%
COc1ccc(CN2CCNc3cnc(Nc4ccccc4)cc3C2)cc1O	0%[70.6 µM]
O=C1NC2(CCN(CC3CCCCC3)CC2)Oc2ccccc21	0%[70.6 µM]
O=C(Nc1ccc(Oc2ccccc2)cc1)O[C@@H]1CO[C@H]2[C@@H]1OC[C@@H]2NS(=O)(=O)c1cccs1	13µM*
CCCNC(=O)N1CCCCCCN(C)C(=O)CC1	4%
O=C(N[C@H]1C[C@H]2C(=O)NC[C@@H](CCC(=O)N3CCN(c4ccccn4)CC3)N2C1)C1CC1	3%
COc1ccc(C(=O)N2CCC(n3cc(-c4nc(C(C)C)no4)nn3)C2)cc1 (stereo not drawn)	?
COc1cccc(OC)c1C(=O)NC1CC(=O)N(CCc2ccc(F)cc2)C1 (stereo not drawn)	1%
Cc1nc2c(N)cccn2n1	0%
CNC(=O)N1CCC(C2CCN(C(=O)c3ccc(OC)cc3)C2)CC1 (stereo not drawn)	4%
COc1ccccc1C(=O)N1CCC2(C1)NC(=O)c1ccccc1CO2 (stereo not drawn)	9%
Cc1cc(C)n(CC(=O)N2CCc3nn(Cc4ccccc4)c(=O)n3CC2)n1	-12%
CCOc1cccc(CNC(=O)c2c(OC)cc(=O)n3c2CCCC3)c1	4%
COCCNC(=O)C[C@@H]1C[C@H]2O[C@H](CNC(=O)N3CCOCC3)[C@@H](O)[C@H]2O1	9%[70.6 µM]
O=C(C1COc2ccccc2C1)N1CCC(n2c(=O)[nH]c3ccccc32)CC1 (stereo not drawn)	?
O=C1[C@@H]2C[C@@H](O)CN2C2(CN(Cc3ccccn3)C2)C(=O)N1Cc1cccc(Cl)c1	2%[70.6 µM]
O=C(CCC1CCN(S(=O)(=O)c2ccccc2)CC1)N1CCOCC1	2%
O=C1CC(c2ccccc2)N(C(=O)CNC(=O)NCc2ccc(F)cc2)CCCCCCN1 (stereo not drawn)	-1%
C=CCOc1cccc(-c2nc(C(=O)N(C)Cc3ccco3)cs2)c1	-14%

Other records:
SMILES	hNpr1 antagonist
O=C1CCC2(CCCO2)CCN1Cc1ccccc1 (stereo not drawn)	5%
O=C1OCC2(CCN(Cc3ccc(F)c(Cl)c3)C2)N1Cc1ccccn1 (stereo not drawn)	-6%[70.6 µM]
O=C(N[C@@H]1COCC[C@@H]1OCc1ccccc1)c1ccc2ncsc2c1	-1%
COCC1CN(S(=O)(=O)Cc2ccc(C)c(C)c2)CC12CCNCC2 (stereo not drawn)	2%
CCC(=O)N1CCC(Oc2ncccc2C(N)=O)CC1	-2%
COc1ccc(-c2cc(N3CCCN(C(=O)C4(c5ccc(OC)cc5)CC4)CC3)n[nH]2)cc1	?
OC[C@H]1C[C@@H](NCc2cccc3c2OCO3)[C@H](O)[C@@H]1O	7%[70.6 µM]
CCc1cccc(NC(=O)Cn2nc3n(c2=O)CCCCC3)c1	-2%
COc1ccc(F)c(CN2C[C@@H](C(=O)O)C[C@@H](C(=O)NCc3ccccn3)C2)c1	1%
CN1C[C@@H]2CC[C@H](CC1=O)N2C(=O)c1cnn2cc(CCO)cnc12	-1%
CCn1c(CO)nnc1C1CC(NC(=O)CCc2n[nH]c3c2CCCC3)C1 (stereo not drawn)	7%
O=C(Nc1cnc(-c2ccc(Cl)cc2)nc1)c1ccccc1Cl	?
CSc1ccc(-c2nc(CN3CCCC(CO)C3)c(C)o2)cc1 (stereo not drawn)	4%
COCCn1c(C)nnc1-c1cc(-c2ccnc(C)c2)ccn1	-1%[70.6 µM]
CN(C)Cc1nnc(C2CC(NC(=O)Cc3noc4ccccc34)C2)n1C (stereo not drawn)	1%
COCC(=O)NC1CCC12CCN(Cc1cccc(C)c1)CC2 (stereo not drawn)	1%
CN1C(=O)CCC2(CNC(=O)c3ccncc3)CCC=C12 (stereo not drawn)	7%
COc1ccccc1-c1ccc2ncc(Nc3cccnc3OC)n2n1	-14%[70.6 µM]
CN(CCCNC(=O)CN1CC2CC(C1)[C@H]1CCCC(=O)N1C2)C1CCCCC1 (stereo partly drawn)	-8%
COc1ccc(CNC(=O)Cn2c(C)cc3nc4n(c(=O)c32)CCCCC4)cc1OC	-22%
COC(=O)C1=C(C)N=C2SC=C(CC(=O)NCCC(C)C)N2C1c1ccccc1Cl (stereo not drawn)	?
O=C(Nc1cccc2ccccc12)O[C@@H]1CO[C@H]2[C@@H]1OC[C@@H]2NC(=S)Nc1ccc(Cl)cc1	-5%
CNC(=O)NC[C@H]1CCN(Cc2scnc2C)C[C@H]1N(C)C	3%
CN(C)CC1(O)CCC2(CCN(C(=O)CCc3nc4ccccc4[nH]3)CC2)CC1	5%
CC(=O)N1CCCC(c2[nH]ccc2C(=O)NCCc2cccs2)C1 (stereo not drawn)	3%

Remaining list, next part:
SMILES	hNpr1 antagonist
Cc1cn(CC(=O)N2C[C@@H](C)[C@](O)(C(C)C)C2)c(=O)[nH]c1=O	0%
COC(=O)N1CCCC2(C1)C(=NC1CCCCC1)NC(=O)N2c1cccnc1 (stereo not drawn)	20%
COCC(=O)NC[C@H]1CCN(Cc2ccc(OC)cc2)C[C@H]1N(C)C	11%
Cn1c(=O)c2ccnn2c2ccc(C(=O)NC3CCCC3)cc21	-4%
Cc1noc(C)c1CCC(=O)NC1CCCc2c1[nH]c1ccc(F)cc21 (stereo not drawn)	-17%
CCN1CCN(C2(C(=O)N3CCC(OC)CC3)Cc3ccccc3C2)CC1	6%
COc1ccccc1-c1cnc(Nc2ccncc2)c2c1CCO2	-15%[70.6 µM]
CCc1ncc(C(=O)N2CCC(c3cc(Cc4ccccc4)[nH]n3)CC2)cn1	12%
CCc1ccc(N2CC(c3noc(-c4cc(F)ccc4F)n3)CC2=O)cc1 (stereo not drawn)	3%
CN1CCN(C(=O)N2CCC3(CCCN(C4CCOCC4)C3=O)C2)CC1 (stereo not drawn)	3%
COC(=O)[C@@H]1Cc2c([nH]c3ccccc23)[C@H]2C[C@@H](N3CCOCC3)C[C@@H](c3ccccc3)N21	-9%
CCC(CC)CN1CC2(CCN(C(=O)CCc3cnn(C)c3)CC2)OC1=O	3%
CCCc1noc(-c2ccn3c(CNC(=O)c4ccc(F)c(Cl)c4)nnc3c2)n1	5%
Cc1cc(C)n(CC(=O)N2CCCCCCNC(=O)[C@@H]3CCCC[C@@H]32)n1	-1%
O=C(O)CCC(=O)N1CC[C@H](c2nnc(-c3cccnc3)o2)C1	6%[70.6 µM]
CCCc1noc(-c2cn(C3CCN(C(=O)c4cccs4)CC3)nn2)n1	-18%
C#CCN(C)C(=O)C[C@@H]1c2nc(NC(=O)CCCCC)sc2C[C@@H]2[C@](C)(CO)[C@H](O)CC[C@]21C	-4%
c1ccc(CN2Cc3[nH]cnc3C[C@H]2c2nc(-c3ccccc3)no2)cc1	-17%[70.6 µM]
CN1CC(=O)N(c2ccccc2F)Cc2c(NC3CCC3)ncnc21	18%
O=C(CCC1CCCC1)NCCc1noc(-c2ccccc2)n1	?
Cc1cccc(C(=O)Nc2cccc(C3OC(=O)N(Cc4ccccc4)C3C(=O)N3CCOCC3)c2)c1 (stereo not drawn)	-12%
O=C(NCc1ccc(F)cc1)c1cc2c(s1)CCN(C(=O)c1ccc(F)cc1)C2	-28%
COc1ccccc1CN1CCc2nc(C(=O)Nc3nc(C)cs3)oc2CC1	-12%[70.6 µM]
FC(F)(F)c1ccc(-c2cnc([C@@H]3COCCN3Cc3ccccn3)[nH]2)cc1	-6%[70.6 µM]
CC(=O)N[C@H]1CN(S(=O)(=O)N(C)Cc2ccccc2)C[C@@H]1C1CC1	3%

Next part.
SMILES	hNpr1 antagonist
CCN(C)C(=O)CCc1c(C)nn(-c2ccccc2)c1Oc1ccc(F)cc1F	-12%
Cc1cccc(NC(=O)N2CCC3(C2)C(=O)N(C)c2ccccc23)c1 (stereo not drawn)	0%
CCn1ncc(N2CCCC(CC(=O)NCc3cccc(C)c3)C2)cc1=O (stereo not drawn)	-2%
COc1cc(NC(=O)CCC2CCCN(Cc3ncccn3)C2)cc(OC)c1 (stereo not drawn)	0%
COc1ccc(C(=O)N2CCC(Cc3nc(C4CC4)n[nH]3)CC2)cn1	0%
COc1ccc(CC(=O)NC2CCN(c3cc(-c4ccccc4)[nH]n3)CC2)cc1	?
C[C@@H]1CN(C2CCN(Cc3cnn(C)c3C3CC3)CC2)C[C@H](C)O1	0%
CC1=CCN(Cc2ccc(OCC(O)CN3CCN(C)CC3)cc2)CC1 (stereo not drawn)	-1%
CNC(=O)[C@@H]1CN(Cc2ccc(F)cc2F)C[C@H]1CO	3%
O=C1CN(C(=O)CCC(=O)N2CCC3(CCCCO3)CC2)c2ccccc2N1	0%
CN1CC2(CCN(C(=O)c3nccn3C)CC2)CC1C(=O)N1CCOCC1 (stereo not drawn)	-8%
COc1ccc(C(=O)N2CCC(Cc3nc(-c4cnccn4)no3)CC2)cc1OC	-9%
COc1ccc(NC(=O)N2C[C@@H](Oc3cccnc3)C[C@@H]2C(=O)N2CCOCC2)cc1	1%
O=C(Cc1cccn1-c1ccccc1)N1CCOCC1	-2%
CC(=O)N1CCN(C(=O)C[C@@H]2CCNC[C@@H]2Cc2cc(COc3ccccc3)on2)CC1	-2%
Cc1cc(F)ccc1OC1(C(=O)O)CCN(c2ncnc3nc[nH]c23)CC1	4%
CCC(=O)N1CCC(Oc2ncccc2C(=O)N2CCOCC2)C1 (stereo not drawn)	7%
CN1c2cc(C(=O)Nc3ccc(C(N)=O)cc3)ccc2C(=O)N2CCCCC21 (stereo not drawn)	0%
Cc1ccc(CN2C[C@@H]3C(=O)N(Cc4ccc5c(c4)OCO5)C(=O)[C@@H]3C2)cc1C	?
O=C1Nc2ccc(-c3ccc(Cl)cc3)cc2C(=O)N2CCN(C(=O)c3cccnc3)C[C@H]12	2%
CCN(CC)c1ccc(NC(=O)CCn2ccn3nc4c(c3c2=O)CCCC4)c(C)c1	-3%
O=C1CCN(C(=O)C2CCN(C(=O)Cc3cccc(F)c3)CC2)CCCCCCN1	3%
CN(CC(=O)N1CCN(c2ccccc2C#N)C(=O)C1)Cc1ccccc1F	1%
Cc1cc(C)n(CCCN(C)Cc2ccccc2C#N)n1	-10%
CCc1cc(=O)n(CC(=O)Nc2ccc(C(F)(F)F)cc2)c(N2CCOCC2)n1	-24%

A different layout for part of the listing above:
CC1=CCN(Cc2ccc(OCC(O)CN3CCN(C)CC3)cc2)CC1 (stereo not drawn)
  hNpr1 antagonist: -1%

CNC(=O)[C@@H]1CN(Cc2ccc(F)cc2F)C[C@H]1CO
  hNpr1 antagonist: 3%

Following part:
SMILES	hNpr1 antagonist
O=C(c1ccc(-c2cnco2)cc1)N1Cc2ccccc2C(O)C1 (stereo not drawn)	4%
Cc1noc(C)c1CC(=O)N1CCC2(CC1)CC(N(Cc1ccccc1)C1CC1)CCO2 (stereo not drawn)	4%
Cc1cccc(CNC(=O)c2nnn3cc(C)[nH]c(=O)c23)c1	4%
Cc1noc(C)c1-c1cc2c(cc(-c3ccccc3)n2C)c(N(C)C)n1	-17%[70.6 µM]
CCOc1ccccc1CN1CCC2(CC1)CC(C(=O)N1CCOCC1)N(C)C2 (stereo not drawn)	4%
CC(=O)NC[C@@H]1C=C(C)[C@H](CC(=O)NCc2ccc(F)cc2)C[C@H]1C(C)C	-2%[70.6 µM]
Cc1ccc(S(=O)(=O)N2CCCN(C(=O)C3CC3)c3ccccc32)cc1F	-2%
COc1cccc(CCC2CCCN(C(=O)c3ccc(OC)o3)C2)c1 (stereo not drawn)	-19%
CCN1c2cc(C(=O)NCc3ccncc3)ccc2C(=O)N2CCCCCC21 (stereo not drawn)	?
Cc1cccc(-c2noc(CCC(=O)N[C@H]3CC[C@H]3NC3CCCC3)n2)c1	1%
O=C(Cc1ccccc1Cl)Nc1cccc(-c2nnc3n2CCCC3)c1	2%

Filtered by structure, the entries above with a thiophene ring, fused or not
SMILES	hNpr1 antagonist
C[C@@H]1CN(C(=O)c2ccsc2)C[C@H]1c1nc(-c2ccncc2)no1	-1%
O=C(Nc1ccc(Oc2ccccc2)cc1)O[C@@H]1CO[C@H]2[C@@H]1OC[C@@H]2NS(=O)(=O)c1cccs1	13µM*
CC(=O)N1CCCC(c2[nH]ccc2C(=O)NCCc2cccs2)C1 (stereo not drawn)	3%
CCCc1noc(-c2cn(C3CCN(C(=O)c4cccs4)CC3)nn2)n1	-18%
O=C(NCc1ccc(F)cc1)c1cc2c(s1)CCN(C(=O)c1ccc(F)cc1)C2	-28%

Structures above that have a COOH group (three):
SMILES	hNpr1 antagonist
COc1ccc(F)c(CN2C[C@@H](C(=O)O)C[C@@H](C(=O)NCc3ccccn3)C2)c1	1%
O=C(O)CCC(=O)N1CC[C@H](c2nnc(-c3cccnc3)o2)C1	6%[70.6 µM]
Cc1cc(F)ccc1OC1(C(=O)O)CCN(c2ncnc3nc[nH]c23)CC1	4%
